MLL AF4-AF9 inh = inhibitors of AF4 peptide binding to AF9, primary screen, biochemical, AlphaScreen, biotin-AF4 peptide, FLAG-AF9, single point. Protein AF-9 (Homo sapiens), P42568. AID 651704, 2012. inhibition, % at 10 µM. 350,000 tested, 0.47% active;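 active means every replicate reaching a set inhibition limit, whatever the replicate mean, cut at about 25% in these data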;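 further: 0% = plate neutral control median and 100% = total signal loss; the record names both 10 and 1 µM as test concentration; the first replicate is given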
Target sequence (P42568 whole entry, looked up): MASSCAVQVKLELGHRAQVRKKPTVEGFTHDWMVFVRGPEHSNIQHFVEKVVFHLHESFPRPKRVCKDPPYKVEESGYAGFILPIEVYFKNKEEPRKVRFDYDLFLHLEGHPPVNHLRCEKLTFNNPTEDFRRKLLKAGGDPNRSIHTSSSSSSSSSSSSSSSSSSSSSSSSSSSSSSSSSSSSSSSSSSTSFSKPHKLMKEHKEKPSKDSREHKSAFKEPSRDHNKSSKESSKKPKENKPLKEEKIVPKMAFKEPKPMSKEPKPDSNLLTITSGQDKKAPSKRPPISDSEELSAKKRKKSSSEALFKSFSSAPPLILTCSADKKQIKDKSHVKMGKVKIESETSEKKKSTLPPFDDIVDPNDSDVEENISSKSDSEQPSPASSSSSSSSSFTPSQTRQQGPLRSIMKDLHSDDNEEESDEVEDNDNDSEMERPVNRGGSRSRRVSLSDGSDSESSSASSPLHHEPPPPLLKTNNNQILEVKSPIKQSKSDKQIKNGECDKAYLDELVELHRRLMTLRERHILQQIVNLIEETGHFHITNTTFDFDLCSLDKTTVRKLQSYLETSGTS
rRNA inh HTS = reduced GFP signal of wild-type E. coli, primary screen, bacterial rRNA inhibitor project, GFP/RFP fluorescence, OD600, single point; E. coli WT GFP vs humanized-ribosome RFP mutants, 24 h; hits give low values; DMSO median 0, no signal -100; GFP signal change (wild-type ribosome), % (concentration not given with the values); 350,000 tested, 1.6% active;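 active means significant combined selectivity score with lowered wild-type GFP, culture density cut under 30%, mutant RFP and density less affected; inactive means any of these conditions unmet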; further: one replicate is shown; some compounds called inactive have numbers as strong as hits
rRNA inh HTS OD600 = also measured in rRNA inh HTS; calls as there; OD600 change, %; measured here: OD600 growth;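 optical density of the mix in the first replicate; 0 = DMSO median and -100 = no signal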
rRNA inh HTS RFP = also measured in rRNA inh HTS; calls as there; RFP signal change, %; measured here: RFP humanized mutant strains;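 first replicate; 0 = DMSO median and -100 = no signal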
Starred values were filed as active, the others as inactive; & = joins results of further samples.

A first look:
entry	smiles	MLL AF4-AF9 inh	rRNA inh HTS	rRNA inh HTS OD600	rRNA inh HTS RFP
1	C[C@H](CO)N1C[C@H](C)[C@@H](CN(C)Cc2ccncc2)Oc2ccc(NC(=O)C3CC3)cc2C1=O	-0.3	2	0	-2.1
2	Cn1c(NCCOc2ccccc2)nc2cc(-c3ccc(F)cc3)sc2c1=O	-5.4	8	20	1.0
3	C[C@@H]1CN([C@H](C)CO)C(=O)c2cccc(NC(=O)c3ccncc3)c2O[C@@H]1CN(C)Cc1ccncc1	-3.9	3	-1	-2.0
4	C[C@H]1CN([C@@H](C)CO)C(=O)c2cc(NC(=O)Cc3cn(C)c4ccccc34)ccc2O[C@@H]1CN(C)Cc1ccc(Cl)c(Cl)c1	-1.3	0	-8	-3.2
5	C[C@@H]1CCCCO[C@@H](CN(C)S(=O)(=O)c2cccs2)[C@H](C)CN([C@H](C)CO)C(=O)c2cc(NS(=O)(=O)c3ccc(F)cc3)ccc2O1	2.0	-1	0	2.9

Results, repeating the preview:
entry	smiles	MLL AF4-AF9 inh	rRNA inh HTS	rRNA inh HTS OD600	rRNA inh HTS RFP
1	C[C@H](CO)N1C[C@H](C)[C@@H](CN(C)Cc2ccncc2)Oc2ccc(NC(=O)C3CC3)cc2C1=O	-0.3	2	0	-2.1
2	Cn1c(NCCOc2ccccc2)nc2cc(-c3ccc(F)cc3)sc2c1=O	-5.4	8	20	1.0
3	C[C@@H]1CN([C@H](C)CO)C(=O)c2cccc(NC(=O)c3ccncc3)c2O[C@@H]1CN(C)Cc1ccncc1	-3.9	3	-1	-2.0
4	C[C@H]1CN([C@@H](C)CO)C(=O)c2cc(NC(=O)Cc3cn(C)c4ccccc34)ccc2O[C@@H]1CN(C)Cc1ccc(Cl)c(Cl)c1	-1.3	0	-8	-3.2
5	C[C@@H]1CCCCO[C@@H](CN(C)S(=O)(=O)c2cccs2)[C@H](C)CN([C@H](C)CO)C(=O)c2cc(NS(=O)(=O)c3ccc(F)cc3)ccc2O1	2.0	-1	0	2.9
6	C[C@H]1CN([C@@H](C)CO)C(=O)Cc2cc(NC(=O)Cc3ccccc3)ccc2O[C@@H]1CN(C)S(C)(=O)=O	12	-1	-3	-0.3
7	C[C@H]1CN([C@@H](C)CO)C(=O)c2cccc(NS(=O)(=O)c3cn(C)cn3)c2O[C@H]1CN(C)CC1CCCCC1	0.4	2	8	-0.3
8	O=C1NC[C@H](CCCCN2C[C@H](Cc3ccc(O)cc3)N(CCc3ccccc3)C(=O)C2=O)N(CCC2CCCCC2)C1=O	5.6	-29	-48	-7.6
9	C[C@@H]1CN([C@@H](C)CO)C(=O)Cc2cc(NS(=O)(=O)c3ccccc3)ccc2O[C@@H]1CN(C)C(=O)Nc1ccc(F)cc1	-1.4	3	0	0.2
10	CC(C)NC(=O)N(C)C[C@H]1Oc2ccc(NC(=O)Cc3cn(C)c4ccccc34)cc2CC(=O)N([C@H](C)CO)C[C@@H]1C	1.4	0	3	0.5
11	CN(C(=O)COC(=O)c1ccc(Cl)c(S(=O)(=O)NCc2ccccc2)c1)C1CCS(=O)(=O)C1 (configuration not stated)	1.6	12	14	2.4
12	CCCCCc1c(-c2cccc(Br)c2)ncn1CCc1ccccc1OC	1.4	10	9	-0.1
13	CCn1ncc(CN2CCC(n3nccc3NC(=O)c3ccccc3Cl)CC2)c1C	0.9	17	22	2.4
14	C[C@H](CO)N1C[C@H](C)[C@H](CN(C)C(=O)CCN(C)C)OCc2ccccc2-c2ccccc2C1=O	5.2	2	7	-2.9
15	CCC(=O)N1C[C@@H](O)COC[C@@H]2O[C@@H](CC(=O)NCc3ccccc3Cl)CC[C@H]21	-2.7	0	-7	-2.0
16	CO[C@H]1CN(C)C(=O)c2cc(NS(C)(=O)=O)ccc2OC[C@@H](C)N(CC2CCOCC2)C[C@@H]1C	0.5	-3	6	-2.3
17	Cn1cnc(S(=O)(=O)N2C[C@@H](O)COC[C@H]3O[C@H](CC(=O)N4CCN(c5ccccc5)CC4)CC[C@@H]32)c1	0.5	10	22	-0.1
18	O=C(C[C@@H]1CC[C@@H](NC(=O)Nc2ccc3c(c2)OCO3)[C@@H](CO)O1)NCc1ccc2c(c1)OCO2	0.2	2	7	2.4
19	CO[C@@H]1CN(C)C(=O)c2ccc(NC(=O)C3CCC3)cc2OC[C@H](C)NC[C@H]1C	-2.3	0	-1	0.0
20	CCNC(=O)[C@@H]1[C@@H](CO)[C@@H]2Cn3c(ccc(C4=CCCC4)c3=O)[C@H]1N2C(=O)C1CC1	0.6	1	0	-1.5
21	Oc1ccc(C[C@H]2CNC(=S)N2CC2CCCN2C[C@H](Cc2ccccc2)N2C[C@H](Cc3ccc(O)cc3)N(CC3CCCCCC3)C2=S)cc1 (some centres not stated)	2.1	13	12	12
22	C[C@H](CO)N1C[C@H](C)[C@H](CN(C)C(=O)NC2CCCCC2)Oc2ccc(NS(=O)(=O)c3ccccc3)cc2CC1=O	-1.6	1	3	-3.5
23	Cc1ccc(S(=O)(=O)Nc2cccc3c2O[C@@H](CN(C)CC2CCCCC2)[C@H](C)CN([C@H](C)CO)C3=O)cc1	0.9	1	3	2.7
24	COC(=O)C(C(=O)OC)c1ccccc1NS(=O)(=O)c1c(C)cc(C)cc1C	-6.1	-27&-29	-59&-58	1.6&13
25	CCC(=O)N(C)C[C@@H]1Oc2cc(C#CCC(C)C)ccc2S(=O)(=O)N([C@H](C)CO)C[C@@H]1C	-0.5	-1	-3	2.2
26	CCCC#Cc1ccc2c(c1)O[C@H](CN(C)C(=O)c1cccnc1)[C@@H](C)CN([C@@H](C)CO)S2(=O)=O	1.4	-2	1	1.5
27	CCNC(=O)C[C@@H]1CC[C@@H]2[C@H](COC[C@@H](O)CN2C(=O)Nc2cccc(OC)c2)O1	-0.9	2	-13	-1.1
28	C[C@@H]1CCCCO[C@@H](CN(C)C(=O)C2CCCCC2)[C@H](C)CN([C@H](C)CO)C(=O)c2cc(NC(=O)Nc3ccccc3)ccc2O1	2.2	2	15	0.0
29	O=C(NCC1CC1)[C@@H]1[C@@H](CO)[C@@H]2Cn3c(ccc(-c4ccccc4F)c3=O)[C@H]1N2Cc1cncnc1	2.7	2	7	-0.9
30	C[C@@H]1CN([C@@H](C)CO)S(=O)(=O)c2ccc(C3=CCCC3)cc2O[C@@H]1CN(C)Cc1ccccn1	0.2	-8	-31	8.8
31	C#CCNC(=O)C[C@@H]1C[C@@]2(C(=O)OCC)CCC=C2N(CCC2=CCCCC2)C1=O	-9.4	12	12	3.0
32	CCCNC(=O)[C@@H]1[C@@H](CO)[C@@H]2Cn3c(cccc3=O)[C@@H]2N1CC1CCCC1	-5.7	2	2	1.1
33	C[C@H]1CN([C@@H](C)CO)C(=O)c2cccc(NC(=O)c3nc4ccccc4s3)c2O[C@@H]1CN(C)Cc1ccc(Oc2ccccc2)cc1	-12	4	-5	-0.7
34	C[C@H]1CN([C@@H](C)CO)C(=O)c2cc(NS(=O)(=O)c3cccs3)ccc2O[C@@H]1CN(C)Cc1ccc(Cl)c(Cl)c1	3.2	-9	-47	1.8
35	C[C@@H]1CN([C@@H](C)CO)C(=O)c2cc(NS(=O)(=O)c3ccc(Cl)cc3)ccc2O[C@@H]1CN(C)Cc1ccc(Oc2ccccc2)cc1	1.3	1	0	3.1
36	COc1ccc2c3c(n(C)c2c1)[C@@H](CO)NCC31CCN(C(=O)c2ccccc2)CC1	0.1	5	1	-2.6
37	CCC(=O)N1CC2(C1)CN(S(C)(=O)=O)[C@@H](CO)c1[nH]c3cc(OC)ccc3c12	-0.8	4	13	-2.9
38	C[C@@H]1CCCCO[C@@H](CN(C)C(=O)NC2CCCCC2)[C@@H](C)CN([C@H](C)CO)C(=O)c2cc(NC(=O)NC3CCCCC3)ccc2O1	0.7	5	3	-1.4
39	C[C@@H]1CN([C@H](C)CO)C(=O)c2cc(-c3ccc(F)cc3)cnc2O[C@@H]1CN(C)C(=O)Cc1ccccc1	-4.5	-1	2	-1.5
40	COc1ccc(-c2ccc([C@H]3[C@H]4CN(Cc5ccc(F)cc5)CC(=O)N4[C@H]3CO)cc2)cc1	5.0	-1	-12	6.1
41	COc1cccc(NC(=O)N[C@H]2CC[C@@H](CC(=O)N3CCOCC3)O[C@H]2CO)c1	1.0	3	6	-2.2
42	O=C(C[C@@H]1CC[C@@H]2[C@H](COC[C@@H](O)CN2Cc2cccc(Cl)c2)O1)N1CCOCC1	-1.1	6	9	-3.0
43	CCCC#Cc1ccc2c(c1)O[C@H](CN(C)C(=O)C1CCC1)[C@H](C)CN([C@@H](C)CO)S2(=O)=O	1.4	-8	-41	3.2
44	COc1ccc(NC(=O)N(C)C[C@@H]2Oc3c(NC(=O)c4cc(C)nn4C)cccc3C(=O)N([C@H](C)CO)C[C@@H]2C)cc1	-0.9	-9	2	2.3
45	C[C@@H]1CN([C@H](C)CO)C(=O)c2cccc(NC(=O)Nc3ccc(C(F)(F)F)cc3)c2O[C@H]1CN(C)S(=O)(=O)c1cn(C)cn1	-3.7	3	4	0.1
46	CC(C)c1cn(CC[C@H]2CC[C@H](NS(=O)(=O)c3ccc(Cl)cc3)[C@H](CO)O2)nn1	-1.1	-5	-4	-2.6
47	C[C@H](CO)N1C[C@H](C)[C@@H](CN(C)C(=O)Cc2ccccc2)Oc2ncc(-c3cncnc3)cc2C1=O	-1.8	5	7	-1.4
48	C[C@H](CO)N1C[C@H](C)[C@@H](CN(C)C(=O)C2CCCCC2)Oc2ncc(Br)cc2C1=O	-9.7	2	13	-6.9
49	C=CCN=C1NC(c2ccccc2)C(C(=O)OC)=C(C)N1Cc1ccc(C(F)(F)F)cc1 (configuration not stated)	7.8	-41	-74	-2.4
50	CO[C@@H]1CN(C)C(=O)c2cc(NC(=O)NC(C)C)ccc2OC[C@H](C)N(C(=O)NC(C)C)C[C@@H]1C	0.3	2	0	-0.6
51	O=C1CN(Cc2ccccc2)C[C@H]2[C@@H](c3ccc(Br)cc3)[C@@H](CO)N12	3.0	0	5	0.6
52	C[C@@H]1CN([C@H](C)CO)C(=O)c2cccc(NC(=O)c3ccc(-c4nccs4)cc3)c2O[C@@H]1CN(C)Cc1ccc(Cl)c(Cl)c1	2.6	-5	-5	1.3
53	C[C@@H]1CN([C@@H](C)CO)C(=O)Cc2cc(NC(=O)C3CCCCC3)ccc2O[C@@H]1CN(C)Cc1ccccc1	0.4	-3	-5	1.1
54	C[C@H]1CN([C@@H](C)CO)C(=O)c2cc(NC(=O)Nc3ccc(F)cc3)ccc2O[C@H]1CN(C)CC1CCCCC1	0.8	1	-10	-2.3
55	O=C(N[C@H]1C=C[C@@H](CC(=O)N2CCCCC2)O[C@@H]1CO)c1ccc2c(c1)OCO2	-1.9	3	5	-2.3
56	CC(C)NC(=O)N(C)C[C@@H]1Oc2ncc(C3=CCCCC3)cc2C(=O)N([C@H](C)CO)C[C@H]1C	-13	8	16	-5.9

Following part.
entry	smiles	MLL AF4-AF9 inh	rRNA inh HTS	rRNA inh HTS OD600	rRNA inh HTS RFP
57	COCC(=O)Nc1ccc2c(c1)[C@@H]1C[C@H](CC(=O)NCc3ccncc3)O[C@H](CO)[C@@H]1O2	-4.0	2	4	-2.3
58	O=C(C[C@@H]1CC[C@@H](NC(=O)CC2CC2)[C@H](CO)O1)NCc1ccccc1	-0.9	1	8	2.0
59	COc1ccc(-c2ccc3n(c2=O)C[C@H]2[C@H](CO)[C@@H](C(=O)NCCN4CCCCC4)N(C)[C@@H]32)cc1	-0.2	1	-3	-0.6
60	Cc1ccccc1S(=O)(=O)N1C[C@H](O)COC[C@@H]2O[C@@H](CC(=O)O)CC[C@H]21	-25	-1	4	2.6
61	O=C(Nc1ccc2c(c1)OCO2)c1cc(C2CCCCN2S(=O)(=O)Cc2ccccc2)on1 (configuration not stated)	-0.4	-4	0	0.2
62	COc1ccc2c3c(n(C)c2c1)[C@@H](CO)N(Cc1ccccc1F)CC31CN(C(=O)C2CCCC2)C1	-1.4	-7	-30	9.2
63	Cc1ccc(S(=O)(=O)NCC[C@H]2CC[C@@H](NC(=O)C3CCOCC3)[C@H](CO)O2)cc1	-1.7	4	8	-1.2
64	CCCc1ccc(C(O)c2ncc(-c3ccccc3C)[nH]2)cc1 (configuration not stated)	1.0	6	4	-0.8
65	C[C@H]1CN([C@@H](C)CO)C(=O)Cc2cc(NC(=O)Cn3cnnn3)ccc2O[C@@H]1CN(C)C(=O)Nc1ccc2c(c1)OCO2	-0.9	0	1	-1.1
66	COc1cccc(C(C)(O)c2nc(-c3ccoc3)cs2)c1 (configuration not stated)	-0.5	9	6	3.0
67	C[C@@H]1CN([C@@H](C)CO)C(=O)c2cc(NC(=O)C3CC3)ccc2O[C@@H]1CN(C)C	-1.3	3	6	-2.8

Screening results as filed in PubChem BioAssay.

These rows are one share of the data; rates above refer to the full screens.
